Screening results: PubChem BioAssay, National Center for Advancing Translational Sciences (NCATS)
VACV Venus inh: vaccinia inhibition (Venus reporter); Potency, µM (series often up to 36.5 µM), inactives show at the top dose activity change, negative = inhibition, hits mostly inhibitors; 0.46% of 330,000 active; Vaccinia virus Venus reporter expression, fluorescence; active means well fitted inhibition curve with a large enough effect; inconclusive means small, poorly fitted or top-dose-only effect; inactive means no such curve, though single readings can be large or run the other way; tested in A549 cells; also: nearly all actives have a fitted effect of over 30% in size; inactives centre near -10
VACV mCherry inh: inhibitors of vaccinia virus infection (mCherry reporter signal). Vaccinia virus mCherry reporter infection, fluorescence; about a quarter of the inactives have no number. Potency, µM (doses to about 36.5 µM), inactives show at the top dose activity change, negative = inhibition, actives largely listed as inhibitors. 0.63% of 310,000 active; active = well fitted inhibition curve with a large enough effect; inconclusive = small, poorly fitted or top-dose-only effect; inactive = no such curve, though single readings can be large or run the other way; tested in A549 cells; also: nearly all actives have a fitted effect of over 35% in size; inactives centre near -10
Numbers without * were called inactive; i = inactive; ? = inconclusive; . = not tested or not shown; [ ] = remark or other dose. % is scaled to controls: 0 for no effect and ±100 for the full control effect; potency is read from the fitted curve at half-maximal effect.

#	Molecule	VACV Venus inh	VACV mCherry inh
1	O=C(OCCc1cc2ccccc2c(=O)o1)c1ccc2c(c1)OCO2	-3%	-12%
2	CCOc1ccc(CCNC(=O)C2CCN(C(=O)N3CC(CC)Oc4ccc(C)cc43)CC2)cc1 (centres undefined)	-22%	-15%
3	CC(Nc1ccc(-c2nc(-c3ccco3)no2)cc1[N+](=O)[O-])c1ccccc1 (centres undefined)	2%	-2%
4	Cn1c(COc2ccccc2)nnc1SCC(=O)Nc1nnc(C2CC2)s1	-9%	i
5	CC1(C)Cc2c(C#N)c(OCC(=O)c3ccc(Cl)cc3)nc(-c3ccco3)c2CO1	-2%	2%
6	O=C(Nc1ccsc1C(=O)O)c1cccc(Oc2ccccc2)c1	-12%	-13%
7	CCCC[C@@H]1C=C(C(=O)O)[C@H](c2ccc(C#N)cc2)N1S(=O)(=O)c1ccc(C)cc1	-5%	4%
8	Cc1ccc(S(=O)(=O)/N=C(/c2ccc(F)cc2)N(C)C)cc1	-22%	-1%
9	O=C(NCc1cccnc1)C(Cl)(Cl)Cl	-25%	i
10	COc1ccc(CNC(=O)CN2C(=O)COc3ccc(S(=O)(=O)N4CCC(C)CC4)cc32)cc1	-11%	-11%
11	CC(C)CNC(=O)NC(=O)COC(=O)c1cccc(NS(=O)(=O)c2ccc(F)c(F)c2)c1	-13%	i
12	CN(C(=O)COC(=O)c1cc([N+](=O)[O-])ccc1Sc1ccccc1)C1CCS(=O)(=O)C1 (centres undefined)	-2%	-7%
13	Cn1cnc2c(ncn2[C@@H]2O[C@H](CO)[C@@H](O)[C@H]2O)c1=N	-10%	-3%
14	Cc1cccc(CC(=O)N2CC(=O)Nc3ccc(C)cc3C2c2ccc(F)cc2)c1 (centres undefined)	-6%	-10%
15	Cc1ccc(NC(=O)CSc2nnc(-c3ccccn3)n2N)cc1F	-20%	-14%
16	Cc1cc(C)n(-c2ccc(C(=O)NCC3Cc4cc(-c5cnccn5)ccc4O3)cc2)n1 (centres undefined)	-7%	-8%
17	CCOC(=O)c1sc(NC(=O)C(CC)Sc2nnc3c4ccccc4n(CC)c3n2)nc1C (centres undefined)	4%	1%
18	CCOC(=O)NC(=O)/C(C#N)=C(/C)N(C)C	-7%	i
19	CCCCn1c(N)c(N(CCOC)C(=O)c2ccc(-c3ccc([N+](=O)[O-])cc3)o2)c(=O)[nH]c1=O	-21%	i
20	Cc1ccc(CC2(c3ccccc3)NC(=O)NC2=O)cc1 (centres undefined)	-14%	-26%
21	Cc1ccc(-c2nc(CS(=O)(=O)CC(=O)NCc3ccc(Cl)cc3)c(C)o2)cc1	-12%	-13%
22	Cc1c2c(nc3ccccc13)CCC(C(C)(C)C)C2 (centres undefined)	-17%	i
23	O=C(O)c1ccc(N/N=C/c2ccc(-c3ccc(Br)cc3)o2)cc1	?	11µM*
24	Cc1c(C(=O)N2CCCCC2C)sc2ncnc(N3CCc4ccccc4C3)c12 (centres undefined)	-8%	?
25	CCOc1ccc(NC(=O)CC2C(=O)N(c3ccc(Cl)cc3)C(=O)N2Cc2cccs2)cc1 (centres undefined)	-10%	-7%

(next part)
#	Molecule	VACV Venus inh	VACV mCherry inh
26	O=c1cc(-c2cccc(Br)c2)nc(-c2ccccc2F)o1	-7%	-13%
27	CC(=O)c1ccc(OCCCC(=O)Nc2ccc(C)c(S(=O)(=O)N(C)C)c2)cc1	-10%	-8%
28	CC(C)Cn1c(N)c(C(=O)COC(=O)c2cccnc2Cl)c(=O)n(C)c1=O	?	-11%
29	O=C(CNS(=O)(=O)c1ccccc1)N/N=C/c1ccccc1[N+](=O)[O-]	-13%	?
30	O=C(COC(=O)c1ccco1)Nc1cc(S(=O)(=O)N2CCOCC2)ccc1Cl	0%	-2%
31	O=C(NC1CCCCC1)C(c1cc2ccccc2o1)n1c(=O)c(-c2ccco2)nc2ccccc21 (centres undefined)	2%	-22%
32	COc1ccccc1N1CCN(C(c2cccs2)C(C)NC(=O)C(=O)N2CCOCC2)CC1 (centres undefined)	-1%[7.34 µM]	-13%[7.34 µM]
33	Cc1cccc(NC(=O)CSc2nc3ccc(NC(=O)c4ccco4)cc3s2)c1	-5%	-7%
34	CCn1c(/C=C/c2ccccc2[N+](=O)[O-])nc2ccccc2c1=O	-23%	-21%
35	C(=C\c1ccccc1)/CN1CCN(C(c2nnnn2Cc2ccccc2)C2CC2)CC1 (centres undefined)	-8%	14%
36	CCOC(=O)C1=CN(Cc2ccc(Br)cc2)S(=O)(=O)N(C)C1C (centres undefined)	-2%	-6%
37	C/C(=C/C#N)Nc1ccc(C)cc1	-4%	-1%
38	O=C(N/N=C/c1c(F)c(F)c(F)c(F)c1F)c1ccc(Cn2cc(Br)cn2)o1	0%	-16%
39	C/C(=N\Nc1c(Cl)c(Cl)nc(C(=O)O)c1Cl)c1ccc(O)cc1	-5%	-19%
40	CN1CCN(C(=O)/C=C/c2ccc(C#N)cc2)CC1	-4%	-13%
41	O=C(NCCc1ccc(Cl)cc1)c1ccc2nc[nH]c2c1	-4%	-2%
42	CNC(=S)N/N=C/c1c(C(=O)OC)cnn1-c1ccc(F)cc1F	-1%[7.34 µM]	i[7.34 µM]
43	CCOC(=O)c1ccc(NC(=O)c2nc[nH]c2C(=O)NC2CCN(C(=O)OC(C)(C)C)CC2)cc1	?	i
44	CCOc1ccc(Br)cc1S(=O)(=O)N1CCSC1	0%	-11%
45	CC(=O)c1ccc(NC(=O)CSc2nc3nc(C)cc(C)n3n2)cc1	11%	3%
46	COC(=O)[C@H](CCSC)NC(=O)Nc1ccc(OC)cc1	-21%	.
47	C=CCOc1ccccc1/C=N/NC(=O)c1ccc(Cl)cc1Cl	-2%	-14%
48	CCCC(O)(c1ccc(Cl)cc1)C(CN1CCOCC1)c1ccccc1 (centres undefined)	-18%	-4%
49	O=C(C[n+]1ccccc1Br)c1ccc(O)c(O)c1	5%	-20%
50	CC(=O)NNC(=O)c1cc2sccc2s1	-8%	i

More compounds:
#	Molecule	VACV Venus inh	VACV mCherry inh
51	CCN(C[C@H]1N[C@@](C)(C(=O)OC)[C@H]2C(=O)N(Cc3ccccc3)C(=O)[C@@H]12)C(=O)C1CCCCC1	-12%	-18%
52	c1ccc2c(c1)oc1c(Nc3ccc(CN4CCOCC4)cc3)ncnc12	?	.
53	Cc1cc2nc(-c3cccc(Cl)c3)c(CC(C)(C)C)n2c(C)c1Br	4%	8%
54	Cc1noc(C)c1S(=O)(=O)N(CCc1ccccc1)Cc1ccccc1	-6%	-11%
55	O=C(NCCc1cnn(-c2ccccc2)c1)c1cc(COc2c(F)cccc2F)on1	-25%	-21%
56	CCc1ccc(-c2[nH]c3c(c2-c2c(-n4cccc4)n(C)c(=O)[nH]c2=O)c(=O)[nH]c(=O)n3C)cc1	7%	0%
57	Cc1ccc(C)c(NC(=O)C2CCN(c3ncnc4c3nc3n4CCCCC3)CC2)c1	-2%	i
58	Nc1c(C(=O)CSc2nnnn2-c2ccc(O)cc2)c(=O)[nH]c(=O)n1C1CC1	-5%	i
59	Cc1ccc(C)c(NC(=S)NCCN(C2CCCCC2)C2CCCC2)c1	-11%	-8%
60	O=C(COc1ccccc1[N+](=O)[O-])N1CCN(CCc2ccccn2)CC1	6%	-5%
61	Cc1ccc(NC(=O)Cc2c[nH]c3ccccc23)cc1S(=O)(=O)N1CCCCCC1	-1%	-10%
62	COc1ccccc1CN(Cc1nc2ccccc2c(=O)[nH]1)C(=O)Nc1ccccc1C	-1%	-8%
63	O=C1c2[nH]nc(-c3ccccc3)c2C(c2ccccc2)N1c1cccc(C(F)(F)F)c1 (centres undefined)	?	-18%
64	O=C(Cn1nc(C(=O)O)c2ccccc2c1=O)Nc1cccc(S(=O)(=O)N2CCCCC2)c1	14%	-9%
65	COc1cccc(-c2cc(C(=O)Nc3c(C)nn(Cc4ccccc4Cl)c3C)no2)c1	-22%	-28%
66	CCOC(=O)N1CCN(C(=O)N2CCOCC2)CC1	-8%	-10%
67	Cc1c(C(C)CCCO)oc(=O)c2c1Oc1c(C)c(C(C)C[C@@H](C)O)oc(=O)c1C2 (some centres undefined)	-20%	-11%
68	NC(=O)N1CCN(C(=O)c2ccco2)CC1	-4%	.
69	O=C(NCc1cccc(F)c1)Nc1nnc([C@@H]2C[C@H](O)[C@@H](CO)O2)s1	-4%	-16%
70	Cc1ccc(CNC(=O)Nc2ccccc2)c(C)c1	-4%	i
71	Cc1ccc(/C=N/NC(=O)c2cccc(NC(=O)c3ccccc3C)c2)o1	17%	-29%
72	CS(=O)(=O)c1cccc(C(=O)OCC(=O)Nc2ccc3c(c2)OCO3)c1	-4%	i
73	CC(NC(=O)c1ccc(Cl)c(S(=O)(=O)NC2CC2)c1)c1ccco1 (centres undefined)	-7%	i
74	Cc1ccc(-n2c(SCC(N)=O)nnc2-c2ccccn2)cc1C	7%	-2%
75	CNP(=S)(NC)OCCOc1ccc(OC)cc1	10%	.

Additional compounds.
#	Molecule	VACV Venus inh	VACV mCherry inh
76	CN1CCN([C@H]2CS(=O)(=O)N[C@@H]2COCc2ccccc2)CC1	7%	47%[activator]
77	CCOC(=O)c1ccccc1NC(=O)COC(=O)CSc1ccccc1	-21%	-14%
78	CCOc1ccccc1NC(=O)Cn1ncc2c(=O)oc3ccc(C)cc3c21	-9%	-1%
79	CCOc1ccc(N(CC(=O)Nc2ccc(F)cc2F)S(=O)(=O)c2c(C)[nH]c(=O)[nH]c2=O)cc1	3%	-2%
80	CCCCn1c(N)c(N(CCOC)C(=O)C2CCN(S(=O)(=O)c3ccc(Cl)cc3)CC2)c(=O)[nH]c1=O	-2%	-14%
81	COc1ccc(/C=C2\C(=O)N(c3c(Cl)cc(Cl)cc3Cl)N=C2NC(=O)c2cccc([N+](=O)[O-])c2)cc1	1%	i
82	CC(C)C(c1nnnn1C1CCCC1)N1CCC(C(N)=O)CC1 (centres undefined)	-24%	i
83	CCOc1ccc(-c2cc3c(=O)n(Cc4nc(-c5ccc(OC(C)C)cc5)oc4C)ccn3n2)cc1Cl	-15%	-13%
84	COc1ccc(N2C(=S)NC3c4cc(Cl)ccc4OC2(C)C3C(=O)N(C)C)cc1 (centres undefined)	-28%	?
85	C=C(C)CSc1nnc2n(Cc3ccccc3)c(=O)c3c4c(sc3n12)CCC4	-9%	.
86	Cc1ccc(S(=O)(=O)CCC(=O)Nc2nnc(-c3cccs3)o2)cc1	?	10µM*
87	COc1cccc(CNc2nc3cc(-c4cccc(C(F)(F)F)c4)sc3c(=O)n2C)c1OC	-16%	11%
88	CCC1CCCCN1C(=O)c1cc(COc2ccc3ncccc3c2)on1 (centres undefined)	-5%	?
89	CCOc1ccccc1C(=O)Nc1nc2c(s1)CC(C)CC2 (centres undefined)	-2%	-4%
90	CN(C)C(=O)c1cc(C(=O)c2ccc(F)cc2F)c[nH]1	-6%	i
91	Nc1[nH]n2c(=O)cc(-c3ccccc3)nc2c1N=Nc1ccccc1	-15%	.
92	C=CCn1c(SCC(=O)NCc2ccco2)nc2sc3c(c2c1=O)CCCC3	-14%	i
93	C#Cc1ccc(CN2CCN(CCCc3ccccc3)C(CCO)C2)cc1 (centres undefined)	-8%	-25%
94	COc1cc(C)ccc1S(=O)(=O)NC(=O)C1(C)CCN1C(=O)Cc1ccc(Cl)cc1Cl (centres undefined)	-4%	i
95	ClC(Cl)(Cl)c1nc2ccccc2n2nncc12	?	?
96	COc1ccc(-c2noc(-c3ccccc3C(=O)NCc3ccco3)n2)cc1	-4%	.
97	CCC(C)NC(=O)CN1C(=O)c2cccc3cccc1c23 (centres undefined)	-6%	-1%
98	CC(C)C(=O)Nc1nnc(-c2ccco2)s1	-12%	-23%
99	Cc1ccc(NC(=O)CCC(=O)N/N=C/c2ccc(O)cc2)cc1	-15%	-5%
100	O=C(NN=C1CCCCCC1)c1cccnc1	-8%	i

Brought forward from above: seven entries; new compounds follow.
#	Molecule	VACV Venus inh	VACV mCherry inh
94	COc1cc(C)ccc1S(=O)(=O)NC(=O)C1(C)CCN1C(=O)Cc1ccc(Cl)cc1Cl (centres undefined)	-4%	i
95	ClC(Cl)(Cl)c1nc2ccccc2n2nncc12	?	?
96	COc1ccc(-c2noc(-c3ccccc3C(=O)NCc3ccco3)n2)cc1	-4%	.
97	CCC(C)NC(=O)CN1C(=O)c2cccc3cccc1c23 (centres undefined)	-6%	-1%
98	CC(C)C(=O)Nc1nnc(-c2ccco2)s1	-12%	-23%
99	Cc1ccc(NC(=O)CCC(=O)N/N=C/c2ccc(O)cc2)cc1	-15%	-5%
100	O=C(NN=C1CCCCCC1)c1cccnc1	-8%	i
101	O=C(CN1CCCCCC1)Nc1ccc(Cl)cc1F	-22%	-11%
102	COc1ccccc1OCC(=O)N/N=C1\CCCCc2ccccc21	-17%	-2%
103	Cc1ccc(CSc2oc(-c3cccs3)nc2S(=O)(=O)c2ccccc2)cc1	-13%	-11%
104	Fc1ccc2nc(C3CCN(Cc4nc(CC5CC5)no4)CC3)[nH]c2c1	-8%	-7%
105	CCC(C)(C)NC(=O)C(OC(=O)c1cc2sccc2n1C)c1ccc(OC)cc1 (centres undefined)	-1%	-14%
106	NC(=O)C1CCN(C(=O)COc2ccc3ccccc3c2Br)CC1	-10%	i
107	C[C@@H]1CN([C@H](C)CO)C(=O)c2cc(Br)cnc2O[C@@H]1CN(C)C(=O)Nc1ccccc1	-2%	i
108	Cc1cccc(CSc2cn(CC(=O)N3CCCC3)c3ccccc23)c1	-15%	-9%
109	Cc1ccc(S(=O)(=O)NCCCCCC(=O)Nc2ccccc2)cc1	-22%	?

This is a random part of the collection (roughly 0.87% active in at least one column).
